Source: PubChem (Broad Institute)
PD-1 reversal: activators reversing PD-1 mediated T-cell inhibition, primary screen, luminescence, primary human CD4 T cells, PD-L1 beads | activation, % (no concentration beside the values) | CellTiter-Glo 96 h | 29,000 tested, under 10 active | AID 2316, 2010;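 active means replicate mean of 50% or more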;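 further: 0% = median vehicle wells and 100% = positive control; 100 nL library stock added to about 50 µL; numbers are from one replicate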
Hedgehog inh: Hedgehog pathway signaling inhibitors, primary screen, luminescence, Shh-LIGHT2 cells, Gli-luciferase; Shh-LIGHT2 Gli-luciferase reporter, 30 h; inhibition, % (no concentration beside the values); 2.1% of 22,000 active; AID 2313, 2010;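 active means replicate mean of 65% or more; inconclusive means mean lower but half the replicates past it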;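 further: pathway switched on by Shh-conditioned medium diluted 1 in 25 in low serum; 100 nL library stock added to about 40 µL; 0% = median of neutral wells and 100% = positive control level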
MITF inhib: inhibitors of MITF, primary screen, MITF inhibitor project, cell-based, luminescence | TRPM1 promoter luciferase, 24 h | inhibition, % (concentration not given with the values) | 0.28% of 37,000 active | AID 2240, 2010;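 active means most replicates at 85% or more, or half of them and the mean; inconclusive means half reach 85% but not the mean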;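 further: human melanocyte line stably carrying TRPM1 promoter luciferase reporter; 0% = vehicle wells and 100% = a positive control; the first replicate is given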
YB-1 expression: inhibitors of YB-1 gene expression, primary screen, cell-based, fluorescence; U2OS, qRT-PCR YB-1 vs CDIP delta delta Cp, 16 h; stronger effect = higher value; zero = DMSO, each unit about twofold; delta delta Cp (YB-1 minus CDIP) (concentration not given with the values); 0.37% of 30,000 active; AID 434959, 2010;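 active means delta delta Cp rounded down to an integer at or above 3, about 3 SD of DMSO wells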;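 further: higher means less YB-1 transcript or more CDIP transcript relative to DMSO; stock transfer was 100 nL into about 100 µL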
An asterisk follows results filed as active; ? = inconclusive; . = no result given. The list is partial; rates above refer to the full screens.

Below each SMILES: PD-1 reversal, Hedgehog inh, MITF inhib, YB-1 expression
C[C@H]1CN([C@@H](C)CO)C(=O)c2cc(NC(=O)CCN3CCOCC3)ccc2O[C@H]1CN(C)S(=O)(=O)c1cn(C)cn1
  0.7, -8, -4, -0.015
C[C@@H]1CN([C@H](C)CO)C(=O)c2cc(NC(=O)Cn3cnnn3)ccc2O[C@@H]1CN(C)Cc1ccc(C(F)(F)F)cc1
  1.6, ., 1, 0.056
CC1(C)CC(=O)c2c(SCC(=O)NN)sc(C#N)c2C1
  0.9, 14, 2, -0.005
CN(C)c1nc(N)nc(CSc2nnnn2-c2ccccc2)n1
  2.5, ., -10, .
Clc1ccccc1/C=C/C=Nc1ccc(N2CCOCC2)cc1
  0.0, 27, -50, 0.031
C[C@@H]1CN([C@H](C)CO)C(=O)c2cc(NS(=O)(=O)c3cccs3)ccc2O[C@H]1CN(C)C(=O)NC1CCCCC1
  0.1, ., -4, 0.11
CC(C)NC(=O)Nc1ccc2c(c1)C(=O)N([C@@H](C)CO)C[C@H](C)[C@@H](CN(C)C)O2
  0.1, -31, -8, -0.078
C/C=C1\C(O[C@@H]2O[C@H](CO[C@@H]3O[C@H](CO)[C@@H](O)[C@H](O)[C@H]3O)[C@@H](O)[C@H](O)[C@H]2O)OC=C(C(=O)OC)C1CC(=O)OCCc1ccc(O)cc1 (stereo partly drawn)
  1.3, 0, 13, -0.44
O=C(CSc1n[nH]c(-c2ccc(Cl)cc2)n1)Nc1ccc(F)c(Cl)c1
  -2.2, ., 41, .
Cc1ccc2c(c1)c1c(n2CCc2ccncc2)CCN(C)C1
  -0.6, 18, 1, -1.7
C[C@@H]1CN([C@@H](C)CO)C(=O)c2cc(NS(=O)(=O)c3ccc(Cl)cc3)ccc2O[C@@H]1CN(C)C(=O)Nc1ccc(F)cc1
  0.7, 13, 7, -0.32
C[C@H]1CN([C@@H](C)CO)C(=O)c2cc(NC(=O)Nc3ccc4c(c3)OCO4)ccc2O[C@@H]1CN(C)S(=O)(=O)c1cccs1
  0.0, ., 12, 0.079
C[C@H](CO)N1C[C@H](C)[C@H](CN(C)S(C)(=O)=O)Oc2c(NC(=O)CCCCCC(=O)Nc3ccccc3N)cccc2C1=O
  3.4, ., -18, -0.25
Cc1noc(C)c1S(=O)(=O)Nc1ccc2c(c1)CC(=O)N([C@H](C)CO)C[C@@H](C)[C@@H](CN(C)CC1CCCCC1)O2
  0.9, ., -3, 0.13
C[C@@H]1CN([C@H](C)CO)C(=O)c2cc(NC(=O)c3ccncc3)ccc2O[C@H]1CN(C)Cc1ccncc1
  0.6, ., -12, -0.047
O=C(c1ccccc1)N(Nc1ccccc1)c1ccccc1
  -0.6, -5, -13, 0.023
CC(=C\C(=O)O)/C=C(\C)CC(C)CCCCC(O)C(CO)C(=O)O (stereo not drawn)
  ., -13, ., 0.45
Cc1c(CCC(=O)O)c(=O)oc2c(C)c(OCc3ccccc3Cl)ccc12
  1.0, ., 41, .
C[C@H](CO)N1C[C@H](C)[C@H](CN(C)CC2CCCCC2)Oc2c(NC(=O)C3CC3)cccc2C1=O
  ., ?, -13, 0.78
CCN(CC(=O)Nc1ccccc1OC)S(=O)(=O)c1ccc(Cl)cc1
  -5.5, ., 13, .

More compounds
Below each SMILES: PD-1 reversal, Hedgehog inh, MITF inhib, YB-1 expression
C[C@H]1CN([C@@H](C)CO)C(=O)c2cc(NS(=O)(=O)c3ccc(Cl)cc3)ccc2O[C@H]1CN(C)C(=O)Nc1cccc2ccccc12
  -0.8, -14, 15, 0.2
O=C(NC(=S)N(Cc1cccnc1)Cc1ccccc1Cl)c1ccccc1
  -3.1, 1, 15, -0.05
O=C1/C(=C\c2ccccc2)N=C2SCCCCN12
  -0.1, -1, -16, 0.038
NC(=O)COc1ccc(NC(=O)c2cc(-n3cnnc3)ccc2Cl)cc1
  2.8, ., -8, .
Cc1ccc(S(=O)(=O)Nc2cccc3c2O[C@H](CN(C)Cc2ccc(C(=O)O)cc2)[C@H](C)CN([C@H](C)CO)C3=O)cc1
  1.0, 3, -3, -0.37
Cc1cc(C(=O)Nc2cccc3c2O[C@H](CN(C)S(C)(=O)=O)[C@@H](C)CN([C@H](C)CO)C3=O)n(C)n1
  2.4, 12, -11, -0.59
Cc1cccc(C)c1NC(=O)C(C)N (stereo not drawn)
  ., -44, 2, -0.15
Cc1ccc(S(=O)(=O)Nc2cccc3c2O[C@H](CN(C)Cc2ccncc2)[C@H](C)CN([C@H](C)CO)C3=O)cc1
  ., 3, -4, 0.3
COc1ccc([C@H]2Oc3cc(O)cc(O)c3C(=O)[C@@H]2O)cc1
  -0.5, -27, -17, -0.48
C[C@H]1CN([C@@H](C)CO)C(=O)c2cc(NC(=O)NC3CCCCC3)ccc2O[C@@H]1CN(C)Cc1ccc(C(F)(F)F)cc1
  -0.6, ., 0, 0.04
COc1ccc(S(=O)(=O)Nc2cccc3c2O[C@H](CN(C)CC2CCCCC2)[C@H](C)CN([C@H](C)CO)C3=O)cc1
  0.1, -6, -8, 0.045
Cc1c(NC(=O)COc2ccc(Br)cc2)cccc1-c1nc2ncccc2o1
  0.3, ., -57, .
CC(=O)Nc1ccc(C(=O)CSc2nc3ccccc3c(=O)[nH]2)cc1
  2.7, ., -10, .
C[C@@H]1CN([C@H](C)CO)C(=O)Cc2cc(NC(=O)C3CC3)ccc2O[C@H]1CN(C)Cc1ccccc1
  0.5, ., -5, -0.043
CN(CC(=O)Nc1ccccc1Cl)S(=O)(=O)c1ccc2ccccc2c1
  2.9, ., 11, .
C1=C(c2ccccc2)CC(c2ccccc2)=NN=C1c1ccccc1
  1.8, 40, -8, 0.18
Cc1ccc(S(=O)(=O)Nc2cccc3c2O[C@@H](CN(C)CC2CC2)[C@H](C)CN([C@@H](C)CO)C3=O)cc1
  1.5, 6, -12, -0.15
C=C(C)C1Cc2c(ccc(C(=O)O)c2O)O1 (stereo not drawn)
  ., -23, -2, 0.079
CCn1cc(C(=O)O)c(=O)c2cc(F)c(N3CCN(C)CC3)cc21
  ., -29, -7, 0.018
Cc1noc(C)c1S(=O)(=O)N(C)C[C@H]1Oc2ccc(NC(=O)CCCN(C)C)cc2C(=O)N([C@@H](C)CO)C[C@H]1C
  1.2, ., -7, 0.25

The results go on.
Below each SMILES: PD-1 reversal, Hedgehog inh, MITF inhib, YB-1 expression
C[C@@H]1CN([C@H](C)CO)C(=O)Cc2cc(NS(=O)(=O)c3cn(C)cn3)ccc2O[C@@H]1CN(C)C
  ., ., -11, -0.36
COc1ccc(NC(=O)CC(C(=O)O)N(C)C)cc1 (stereo not drawn)
  3.3, ., 4, .
CNC[C@H]1OCCCC[C@@H](C)Oc2ccc(NS(=O)(=O)c3c(C)noc3C)cc2C(=O)N([C@H](C)CO)C[C@@H]1C
  ., ., -8, 0.15
CN(C)CC(O)Cn1c2ccc(Br)cc2c2cc(Br)ccc21 (stereo not drawn)
  ., ?, -61, -0.31
COc1ccc(CN(C)C[C@@H]2Oc3ccc(NC(=O)NC(C)C)cc3C(=O)N([C@@H](C)CO)C[C@@H]2C)cc1
  -1.2, -10, -15, -0.061
C[C@@H]1CN([C@H](C)CO)C(=O)c2cccc(NS(=O)(=O)c3cn(C)cn3)c2O[C@@H]1CN(C)Cc1ccc2c(c1)OCO2
  -3.0, -3, -22, -0.49
C=CCn1c(COc2ccccc2)n[nH]c1=S
  0.5, -16, -3, 0.35
Cc1cc(C(=O)Nc2cccc3c2O[C@@H](CN(C)C(=O)Nc2ccc(C(F)(F)F)cc2)[C@H](C)CN([C@H](C)CO)C3=O)n(C)n1
  0.7, -63, 1, 0.23
C[C@@H]1CN([C@@H](C)CO)C(=O)c2cc(NC(=O)Nc3ccc(C(F)(F)F)cc3)ccc2O[C@H]1CN(C)C(=O)Nc1ccc(C(F)(F)F)cc1
  -7.1, 10, 47, -0.03
CCN1C(=O)CCC(C(=O)O)C1c1ccc(OC)cc1 (stereo not drawn)
  0.5, -15, -12, 0.38
C[C@@H]1CN([C@H](C)CO)C(=O)Cc2cc(NC(=O)Nc3ccc(C(F)(F)F)cc3)ccc2O[C@@H]1CN(C)Cc1ccc(-c2ccccc2)cc1
  -1.0, 8, 5, -0.019
c1ccc2c(c1)CCCc1cc(NCCN3CCOCC3)nnc1-2
  ., -14, -7, -0.072
C[C@@H]1CN([C@@H](C)CO)C(=O)Cc2cc(NC(=O)c3ccncc3)ccc2O[C@@H]1CN(C)Cc1ccc(C(F)(F)F)cc1
  ., 13, -11, 0.12
COc1ccc(S(=O)(=O)N(C)C[C@@H]2Oc3c(NS(C)(=O)=O)cccc3C(=O)N([C@@H](C)CO)C[C@H]2C)cc1
  -0.6, -27, -11, -0.13
CCC(C)C(NC(=O)C(C)(C)NC(=O)C(C)(CC)NC(=O)C(N)Cc1c[nH]c2ccccc12)C(=O)NC(=O)CCC(NC(C)=O)C(=O)O (stereo not drawn)
  0.2, -13, 11, 1.4
CCOC(=O)NC(=O)CSc1nnnn1-c1ccccc1
  1.0, ., 6, .
O=C1C=CC(=O)c2c(O)c(Cl)c(Cl)c(O)c21
  -41, 44, 60, -0.43
C[C@H]1CN([C@@H](C)CO)C(=O)c2cc(NC(=O)CCCN(C)C)ccc2O[C@H]1CN(C)Cc1ccc(Cl)c(Cl)c1
  0.8, 38, 13, 0.055
O=C(Nc1ccccc1)Nc1ccc(C2SCCS2)cc1
  1.5, ., 22, -0.37
Cc1noc(C)c1NC(=O)Nc1cccc2c1O[C@@H](CN(C)C(=O)Nc1ccc(C(F)(F)F)cc1)[C@@H](C)CN([C@@H](C)CO)C2=O
  0.0, 1, 4, 0.32

(further entries)
Below each SMILES: PD-1 reversal, Hedgehog inh, MITF inhib, YB-1 expression
Cc1cc(C)c(C)c(S(=O)(=O)NCCc2c(C)[nH]c3ccccc23)c1C
  -3.5, ., 31, .
COc1ccc([N+](=O)[O-])cc1CSc1nnc(-c2ccccc2)n1-c1ccccc1
  0.5, ., 8, .
C[C@H]1CN([C@@H](C)CO)C(=O)c2cccc(NC(=O)C3CC3)c2O[C@H]1CN(C)CC1CC1
  ., ?, 11, -0.15
C[C@H]1CN([C@@H](C)CO)C(=O)c2cccc(NC(=O)c3ccncc3)c2O[C@H]1CN(C)CC1CCCCC1
  0.5, -94, -6, 0.3
CNC[C@@H]1Oc2ccc(NC(=O)C3CCCCC3)cc2C(=O)N([C@@H](C)CO)C[C@@H]1C
  2.0, ., -15, -0.38
C[C@@H]1CN([C@H](C)CO)C(=O)c2cccc(NS(=O)(=O)c3ccc(Cl)cc3)c2O[C@H]1CN(C)C(=O)Nc1cccc2ccccc12
  1.0, 24, 6, -0.23
O=C(CSc1ncn[nH]1)NC1CC2CCC1C2 (stereo not drawn)
  1.3, ., -13, .
Cc1ccc(S(=O)(=O)Nc2cccc3c2O[C@H](CN(C)Cc2ccc(C(=O)Nc4ccccc4N)cc2)[C@@H](C)CN([C@@H](C)CO)C3=O)cc1
  -1.4, ., 33, -0.18
C[C@@H]1CN([C@@H](C)CO)C(=O)c2cc(NC(=O)Nc3cccc4ccccc34)ccc2O[C@H]1CN(C)Cc1ccc2c(c1)OCO2
  0.6, ., 3, 0.13
CNC[C@@H]1Oc2ccc(NS(=O)(=O)c3c(C)noc3C)cc2C(=O)N([C@@H](C)CO)C[C@@H]1C
  0.2, -41, 9, 0.25
C[C@@H]1CN([C@H](C)CO)C(=O)c2cc(NC(=O)Nc3ccc(F)cc3)ccc2O[C@@H]1CN(C)S(=O)(=O)c1ccccc1
  0.2, -11, -11, 0.32
O=C(Nc1ccccc1)N[C@H]1C[C@H](C(=O)O)Nc2cc(Cl)cc(Cl)c21
  3.6, -31, 1, 0.18
CC(C)NC(=O)Nc1ccc2c(c1)CC(=O)N([C@@H](C)CO)C[C@@H](C)[C@@H](CN(C)S(C)(=O)=O)O2
  0.1, -23, -11, 0.048
C[C@H]1CN([C@@H](C)CO)C(=O)Cc2cc(NC(=O)Nc3ccc(C(F)(F)F)cc3)ccc2O[C@H]1CN(C)S(=O)(=O)c1ccc(Cl)cc1
  -4.2, ?, 46, 0.0043
O=C(CC1NCCNC1=O)Nc1ccccc1 (stereo not drawn)
  0.9, ., 5, .
C[C@@H]1CCCCO[C@@H](CN(C)C(=O)NC2CCCCC2)[C@@H](C)CN([C@H](C)CO)C(=O)c2cc(NS(C)(=O)=O)ccc2O1
  0.4, ., 0, -0.58
COc1ccc(NC(=O)Nc2ccc3c(c2)C(=O)N([C@@H](C)CO)C[C@@H](C)[C@H](CN(C)Cc2ccncc2)O3)cc1
  0.4, ., 9, 0.029

Three structures out of the list, ordered by molecular weight, falling:
Below each SMILES: PD-1 reversal, Hedgehog inh, MITF inhib, YB-1 expression
Cc1ccc(S(=O)(=O)Nc2cccc3c2O[C@H](CN(C)Cc2ccc(C(=O)Nc4ccccc4N)cc2)[C@@H](C)CN([C@@H](C)CO)C3=O)cc1
  -1.4, ., 33, -0.18
C[C@H]1CN([C@@H](C)CO)C(=O)c2cccc(NC(=O)c3ccncc3)c2O[C@H]1CN(C)CC1CCCCC1
  0.5, -94, -6, 0.3
O=C(CSc1ncn[nH]1)NC1CC2CCC1C2 (stereo not drawn)
  1.3, ., -13, .
